Compound activity deposited in PubChem by ICCB-Longwood Screening Facility, Harvard Medical School.
AID504770 = growth inhibition of E. coli YBA685, primary screen, V. cholerae RctB inhibitors; AID 504770, 2011; 0.27% of 130,000 active; z-score (concentration not given with the values); E. coli YBA685 rctB-dependent plasmid, OD600 growth, 3 h; stronger effect = lower value;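 active = z-score under -2 on both plates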;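 also: wells of about 30 µL received 100 nL stock; score is relative to mean and SD of the test wells; the first replicate is given; strong numbers were not always called active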
Ba CapD inh = Bacillus anthracis CapD inhibitors, primary screen, biochemical, fluorescence intensity; z-score (test concentration not listed); CapD gamma-glutamyltranspeptidase (Bacillus anthracis Ames Ancestor); 0.23% of 140,000 active; AID 492967, 2010; purified CapD enzyme, fluorescence intensity read-out; stronger effect = lower value; some hits fall short of the stated cut;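 active = z-score under -4 in either of two replicates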;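 also: stock transfer was 100 nL into about 40 µL; score is relative to mean and spread of the plate; one replicate is shown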
* = called active by the depositor; · = not tested or not shown. Not all compounds are listed, so the mix of outcomes need not match the whole.

Start of the listing, in advance, three compounds:
Every second line gives: AID504770, Ba CapD inh
- Cc1cc(C(=O)COC(=O)Cn2c(C(F)(F)F)nc3ccccc32)c(C)n1Cc1ccco1
→ -2.4, ·
- CCOc1c(OC)cc(C#N)cc1C(=O)O
→ -0.95, -0.27
- N#CCCS(=O)(=O)c1ccc(Oc2ccc(S(=O)(=O)CCC#N)cc2)cc1
→ -0.55, 0.64

This part in full, from the start:
Every second line gives: AID504770, Ba CapD inh
- Cc1cc(C(=O)COC(=O)Cn2c(C(F)(F)F)nc3ccccc32)c(C)n1Cc1ccco1
→ -2.4, ·
- CCOc1c(OC)cc(C#N)cc1C(=O)O
→ -0.95, -0.27
- N#CCCS(=O)(=O)c1ccc(Oc2ccc(S(=O)(=O)CCC#N)cc2)cc1
→ -0.55, 0.64
- Cc1ccc(C)c(-c2nc3ccc(N)cc3[nH]2)c1
→ -1.2, 63
- O=C(Cc1cn2ccsc2n1)NN=C1c2ccccc2-c2ccccc21
→ 0.15, ·
- O=C(NCc1ccsc1)C1CCCCN1 (stereo not given)
→ 0.5, 0.035
- CCc1ccc(C(O)(c2ccccc2)C(CN2CCOCC2)c2ccccc2)cc1 (stereo not given)
→ 0.05, 0.57
- NC(=O)c1ccc(OCC(=O)NC(=O)NCC2COc3ccccc3O2)cc1 (stereo not given)
→ -0.8, ·
- O=C(CN1C(=O)c2ccccc2C1=O)Oc1ccc2ccccc2c1
→ -0.35, -0.005
- CC12CC3(C)CC(C)(C1)CC(C(=O)NN)(C2)C3
→ 0.15, ·
- Cc1cccn2c(=O)c(/C=C3\SC(=S)NC3=O)c(NCc3ccco3)nc12
→ 1.4, 0.3
- Cc1onc(-c2ccccc2)c1C(=O)NCC(O)c1ccccc1 (stereo not given)
→ -0.6, -0.095
- FC(F)(F)c1ccc(NCc2ccc3c(c2)OCO3)nc1
→ -1, ·
- CCN1C(=O)CC(NC23CC4CC(CC(C4)C2)C3)C1=O (stereo not given)
→ 0.75, ·
- CCCCCCOc1ccc(S(C)(=O)=O)cc1NC(=O)c1ccc(C(F)(F)F)cc1
→ ·, -0.39
- Oc1c(Cl)cc(Cl)cc1C=Nc1cc(C(F)(F)F)ccc1N1CCOCC1
→ ·, 0.33
- C=CCn1c(SCC(=O)Nc2ccc3c(c2)OCO3)nc2sc3c(c2c1=O)CCC3
→ ·, -0.32
- CN1C(=O)/C(=C\C(=O)c2cccs2)c2ccccc21
→ 0.5, -0.22
- COc1ccccc1Oc1ccc2c(c1)C(=O)N(c1ccc(O)cc1)C2=O
→ ·, -0.2
- CCSc1nc2cc(C(=O)OC)ccc2c(=O)n1CC
→ 0.15, 4.1
- CC(C)c1nc(C#N)c(NCCCn2ccnc2)o1
→ -0.6, 0.43
- CC(C)(C)Nc1ncnc2c1cnn2Cc1ccccc1
→ 2.7, -0.21
- O=C(Nc1ccccc1)Nc1ccccc1Br
→ 2.9, -0.97
- CSc1ccccc1NC(=O)CC(=O)Nc1ccccc1SC
→ -0.55, 0.02
- O=C(O)c1cc2cc(Cl)cc(Br)c2oc1=O
→ -0.4, -0.8
- COc1ccc(Cl)cc1S(=O)(=O)N1CCCCC1C (stereo not given)
→ 1.2, 0.14
- N#CC1C(=O)NC(c2ccccc2)C=C1c1ccccc1 (stereo not given)
→ 2, 0.7
- CN1CCN(C=Nc2nc3ccccc3nc2N2CCCC2)CC1
→ -3.7, ·
- O=C(O)C12CC3CC(C1)CC(c1ccccc1)(C3)C2
→ -0.65, 0.3
- O=C(CSc1nc2cc(Cl)ccc2s1)Nc1cccc([N+](=O)[O-])c1
→ ·, 0.25
- Clc1ccccc1OCCn1cc(/C=N/n2cnnc2)c2ccccc21
→ 0.1, -0.57
- CC(=O)n1cc(-c2nsc(Nc3ccccc3)n2)c(C)n1
→ 0.65, -0.43
- COCCNC(=O)Cn1nc(C(F)(F)F)cc1C
→ -0.35, ·
- Cc1nc2cc(-c3ccccc3)nn2c(C)c1CCC(=O)NC(C)C
→ 0.75, 1
- O=C(OCC(=O)N1CCCCCC1)c1n[nH]c(=O)c2ccccc12
→ 0.5, ·
- O=C(O)c1ccccc1C(=O)Nc1ccc(-c2ccccc2)cc1
→ -0.15, -0.07
- COc1ccc(CN2CC(C(=O)O)CC2=O)cc1 (stereo not given)
→ 0.15, 0.74
- CCCNC(=O)C1CCN(C(=O)N2CCOc3ccccc32)CC1
→ -0.1, 0.14
- Cc1ccccc1OCCCC(=O)Nc1nc2ccccc2s1
→ -0.3, -0.19
- Cc1ccc(-c2nc3cc(Cl)ccc3o2)cc1NC(=O)c1ccco1
→ -0.95, 3.2
- O=P(O)(c1ccccc1)c1nccn1-c1ccc(Cl)nn1
→ -0.45, 0.36
- Cc1ccc(N)cc1NS(C)(=O)=O
→ 0, 0.24
- CCOCCC(=O)Nc1ccc(Cl)cc1
→ -1, -0.12
- CSC(=S)N(C)c1nc2ccccc2s1
→ 0.35, -0.45
- CC(=O)Nc1c(C#N)c(C(C)(C)C)cn1C
→ 0.25, 0.68
- CNC(=O)C1=C(C)Nc2nc3ccccc3n2C1c1ccc(F)cc1 (stereo not given)
→ 2.2, 0.46
- Cc1ccc(C(=O)CC(C(=O)O)N2CCN(C)CC2)cc1 (stereo not given)
→ -1.3, -0.29
- COc1cccc(CNc2ccc3c(c2)ncn3C(C)(C)C)c1OC
→ -0.6, 0.51
- O=C(Nc1ccc(F)cc1F)c1ccc2nonc2c1
→ -0.3, -0.32
- CCOC(=O)c1sc2nc(NC(=O)C(C)(C)C)sc2c1C
→ 0.6, ·
- C=CCn1c2ccccc2c2nnc(SCCCC(=O)c3ccc(F)cc3)nc21
→ 0.15, 0.32
- Cc1cc2n(n1)C(c1cccnc1)Nc1ccccc1-2 (stereo not given)
→ 0.55, 0.92
- CCOc1ccc(Oc2nc(NCC(C)C)nc(OC)n2)nn1
→ 0.1, 1.6
- CSc1nccc(-c2ccc(S(=O)(=O)Nc3cc(C(F)(F)F)cc(C(F)(F)F)c3)s2)n1
→ ·, -0.48
- Cc1noc(C)c1COC(=O)C1=NNC(=O)CC1
→ 0.3, ·
- O=C(CCn1ccnc1)OCc1ccccc1
→ 0.2, ·
- FC(F)(F)c1cc(Cl)c2nnc(C(F)(F)Cl)n2c1
→ 0, -0.38
- O=C(CCC(=O)N1CCc2ccccc2C1)N1CCC(N(C2CC2)S(=O)(=O)c2ccccc2)CC1
→ ·, -0.33
- Cc1nc(C#N)c(C#N)nc1C
→ ·, 0.14
- Cc1cccc2oc3cc(NCCCN(C)C)c4c(=O)c5ccccc5c(=O)c4c3[nH]c12
→ ·, 0.055

(further entries)
Every second line gives: AID504770, Ba CapD inh
- N#Cc1nccnc1N1CCN(C(=O)OCCc2cccc3ccccc23)CC1
→ ·, -0.1
- CN1CCN(c2ccc(NS(=O)(=O)c3cccc4nonc34)cc2)CC1
→ -0.9, -0.42
- Cc1cc(-c2ccc(S(=O)(=O)NC3CCCc4ccccc43)s2)n[nH]1 (stereo not given)
→ -0.8, -0.05
- O=C(CSc1ssc(=S)c1-c1ccccc1)c1ccccc1
→ 1.2, 0.74
- O=S(=O)(c1cccc2nonc12)N1CCCc2ccccc21
→ ·, -0.84
- O=C(/C=C1\SC(=O)NC1=O)Nc1ccc(F)cc1
→ -0.85, ·
- O=C(N/N=C1\CC(=O)c2ccccc21)c1ccc(CSc2nc3ccccc3o2)cc1
→ 0.5, ·
- O=C1CNCCN1C1CCCCC1
→ 0.45, ·
- CCCc1cc(=O)oc2c(C)c3oc(C)c(C)c3cc12
→ 1.1, -0.2
- CCCS(=O)(=O)c1c(S(=O)(=O)CCC)c2ccc(C(C)=O)cn2c1C(=O)c1ccc(F)cc1
→ ·, 0.035
- O=c1c2c3c(sc2[nH]c(=S)n1C1CCCCC1)CCC3
→ ·, -0.12
- O=C(Nc1ccc(S(=O)(=O)N2CCCCC2c2cccnc2)cc1)c1ccccc1Br (stereo not given)
→ ·, -0.42
- CN(C)c1ccc(/C=N/NC(=O)CN2CC(c3ccccc3)CC2=O)cc1 (stereo not given)
→ -0.75, 14
- NC(=S)N(c1ccccc1)c1ccccc1
→ 1.1, ·
- CCOC(=O)CC1=Nn2c(nnc2C2CCCCC2)SC1
→ -0.45, ·
- Nc1ccc(C(=O)NN=C2C3CC4CC2CC(O)(C4)C3)cc1
→ -0.5, 0.28
- O=C(O)CCC(=O)N1CCCc2ccccc21
→ 0.25, 0.24
- Cc1ccc(C)c(SCC(=O)NC(=O)NC2CCCC2)c1
→ 0.6, ·
- CC1(c2ccccc2)CC(C)(C)N2C(=O)/C(=C3\SC(=O)NC3=O)c3cccc1c32 (stereo not given)
→ 0.55, -1.9
- CC1CCCC(N2CCC(N3CCN(CCO)CC3)CC2)C1 (stereo not given)
→ 0.4, 0.79
- OC(c1ccccc1)c1cnc(-c2cccnc2)nc1-c1ccccc1 (stereo not given)
→ ·, -0.42
- COC(=O)c1cc2sccc2n1CC(=O)Nc1cc(OC)cc(OC)c1
→ 1.6, -0.12
- CCc1nnc(NC(=O)CSc2nccn2-c2ccc(Cl)cc2)s1
→ 0.5, -0.61
- O=C(Nc1cccc(F)c1)c1cc(-c2ccc(Cl)cc2)nc2ccccc12
→ ·, 9.3
- CC(C)=C1N=C(c2ccc(Cl)cc2)OC1=O
→ 2.3, ·
- O=C(c1cccc(Cl)c1)c1nn(-c2ccccc2)c(=O)cc1C(F)(F)F
→ ·, 0.06
- NC1=NC(=O)C(CC(=O)Nc2cccc(C(=O)NCCc3ccc(S(N)(=O)=O)cc3)c2)S1 (stereo not given)
→ 0.55, ·
- Cc1cccc(-n2nnnc2C2(N=Cc3ccccc3)CCCCC2)c1
→ ·, -0.29
- O=C(OCc1cccc(OCc2ccccc2)c1)N1CCN(C(=O)C2COc3ccccc3O2)CC1 (stereo not given)
→ ·, -0.3
- CCCn1c(SCC(=O)c2cccs2)n[nH]c1=O
→ 0.2, ·
- Oc1cc2c(cc1CN1CCc3ccccc3C1)CCC2
→ -1.1, ·
- Cc1nn(-c2ccccc2)c(C)c1CN(C)CC(=O)Nc1ccc(S(=O)(=O)N(C)C)cc1
→ -0.5, ·
- Cc1ccc(C)n1CCN1CCN(C(=O)c2ccc(Cl)cc2)CC1
→ 0.1, 0.06
- COc1ccc(S(=O)(=O)N(C)C2(C)CCS(=O)(=O)C2)cc1C (stereo not given)
→ -0.15, ·
- CCc1ccc(NC(=O)CSc2nnc(CNC(=O)c3ccc4c(c3)OCO4)n2C)cc1
→ -0.5, 0.025
- N=c1c2c(-c3ccccc3)c(-c3ccccc3)oc2ncn1CCCO
→ 0.05, 30
- CCNC(=O)c1ccc(-n2nc(C(F)(F)F)c3c2CCCC3)cc1
→ 0.2, 0.26
- O=C(OCCn1c2ccccc2c2nc3ccccc3nc21)c1cccnc1
→ -1.2, -0.69
- O=C1c2ccccc2-c2cc(Cl)nc3ccc(Nc4ccccc4)c1c23
→ ·, -0.06
- Cc1ccc(C)c(C(=O)COC(=O)c2ccc[nH]c2=O)c1
→ 0.05, ·
- Cc1ccccc1OCc1nc(-c2ccc(NC(=O)c3ccc(Br)o3)cc2)no1
→ -0.75, 1.7
- COc1cccc(-c2nc(-c3cc(C)n(C4CC4)c3C)cs2)c1OC
→ -0.1, ·
- O=c1c(CN2CCN(Cc3ccccc3)CC2)coc2ccccc12
→ 2.4, -0.39
- c1ccc(C2NCCS2)cc1 (stereo not given)
→ -1, -0.05
- CN(C)CCC(=O)c1ccc2c(c1)OCCCO2
→ 0.3, 0.2
- O=C(c1ccc(NS(=O)C23CC4CC(CC(C4)C2)C3)cc1)N1CCCC1 (stereo not given)
→ 0.3, ·
- COc1ccc(-n2nc3c(c2NC(=O)/C=C\c2ccc4c(c2)OCO4)CS(=O)(=O)C3)cc1
→ 2.5, -1.5
- CCc1ccccc1NC(=O)c1ccc2snnc2c1
→ 0.2, -0.1
- O=C1CSC(c2cccnc2)N1c1ccc(C(F)(F)F)cc1 (stereo not given)
→ ·, 0.89
- c1ccn(-c2ccc(-c3ccc(-n4cccc4)cc3)cc2)c1
→ -0.45, 0.91
- CCCN1CCC(N(C(=O)Nc2ccccc2C(=O)NCCN2CCOCC2)C2CC2)CC1
→ ·, -0.51
- CC(C)C(C(=O)OCC(=O)c1ccc(Br)cc1)N1C(=O)C2C3C=CC(C3)C2C1=O (stereo not given)
→ ·, 0.45
- Nc1ccc(-c2ccc(CO)o2)cc1
→ 1.8, 7.8
- CCC1CCCCN1C(=O)COc1cccc2c1CCN(C)C2=O (stereo not given)
→ -1.4, 1.3
- CCc1ccc(NC(=O)CSc2ccc(-c3ccco3)nn2)cc1
→ -0.4, 0.53
- c1ccc(-c2noc(CN3CCCC3c3cccs3)n2)cc1 (stereo not given)
→ 0.35, ·
- CCOC(=O)c1c(C)oc2cc(Br)c(OC/C=C/c3ccccc3)cc12
→ ·, -0.07
- Cc1cc(C(=O)OCC(=O)N2c3ccccc3Sc3ccccc32)c2ccccc2n1
→ 0.45, -0.52
- O=S(=O)(c1cccc2cccnc12)N1CCCN(Cc2c(F)cccc2Cl)CC1
→ 0, 0.27
- CCOC(=O)N1CCN(C(=O)c2ccc3c(c2)N(Cc2ccccc2)C(=O)c2ccccc2S3=O)CC1 (stereo not given)
→ 0.7, 0.18

A stretch from the list above:
Every second line gives: AID504770, Ba CapD inh
- c1ccc(C2NCCS2)cc1 (stereo not given)
→ -1, -0.05
- CN(C)CCC(=O)c1ccc2c(c1)OCCCO2
→ 0.3, 0.2
- O=C(c1ccc(NS(=O)C23CC4CC(CC(C4)C2)C3)cc1)N1CCCC1 (stereo not given)
→ 0.3, ·

Other compounds:
Every second line gives: AID504770, Ba CapD inh
- CCn1c(O)c(/C=c2/c(C)c(C#N)c3nc4ccccc4n3c2=O)n(CC)c1=S
→ 0.3, 2.1
- c1ccc(C2C3=C(CCCC3)Nc3ncnn32)cc1 (stereo not given)
→ 1.1, 0.39
- CC1CCCC(C)N1CC#CCO (stereo not given)
→ -0.55, 0.35
- Fc1ccccc1CNc1ncnc2c1oc1ccccc12
→ -0.25, ·
